Assay outcomes deposited in PubChem by Broad Institute.
Vaccinia inh – blocks a specific stage of Vaccinia orthopoxvirus infection; Vaccinia-infected cells, mCherry/Venus stage reporter fluorescence; stronger effect = lower value; some inactives read as strong as hits; activity change (mCherry), % (no concentration beside the values); actives 0.01% (n = 89,000);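 active means mCherry past -33% and 40 or more points under the early reporter, replicates agreeing; inconclusive means past -33% without that gap or agreement; tested in A549 cells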;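 further: scaled between vehicle wells and reference inhibitor wells; 23 nL library stock went into each well; one replicate is shown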
Vaccinia inh Venus – also measured in Vaccinia inh; calls as there; activity change (Venus), %; measured here: Venus reporter, other viral stage;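 negative = less Venus signal; first of two replicates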
Active calls of the source: *; ? = inconclusive; . = no result given; & = joins results of further samples. A portion of the library; the hit share may differ from the screen's.

SMILES | Vaccinia inh | Vaccinia inh Venus
CCC(=O)N1[C@@H]2c3ccc(/C=C/c4ccccc4)c(=O)n3C[C@@H]2[C@@H](CO)[C@@H]1C(=O)OC | 0 | -1
COc1ccccc1C(=O)Nc1ccc2c(c1)C(=O)N(C)[C@@H]1CC[C@H](CC(=O)NCCc3ccncc3)O[C@H]1CO2 | -1 | 12
CN(C)C(=O)C[C@H]1CC[C@H]2[C@@H](COC[C@@H](O)CN2C(=O)c2ccncc2)O1 | 7 | 10
COc1ccc(S(=O)(=O)N[C@@H]2CC[C@@H](CC(=O)N3CCN(c4ccccc4)CC3)O[C@H]2CO)cc1 | -4 | 4
COc1ccc2c3c(n(C)c2c1)[C@@H](CO)N(C(=O)C1CCC1)CC31CCN(Cc2cccc(F)c2)CC1 | ? | .
CNC[C@@H]1Oc2cc(C#CCOC)ccc2S(=O)(=O)N([C@@H](C)CO)C[C@@H]1C | -1 | 7
C[C@@H]1CN([C@@H](C)CO)C(=O)Cc2cc(NC(=O)CCC(F)(F)F)ccc2O[C@@H]1CN(C)Cc1ccc(C(F)(F)F)cc1 | -29 | -25
COc1ccccc1-c1cn(CC[C@@H]2CC[C@H](NC(=O)NC(C)C)[C@@H](CO)O2)nn1 | 7 | 9
COc1ccc(CN(C)C[C@@H]2Oc3ccc(NC(=O)Nc4ccc(OC)cc4)cc3CC(=O)N([C@H](C)CO)C[C@H]2C)cc1 | -11 | -13
Cc1noc(C)c1NC(=O)Nc1ccc2c(c1)C(=O)N([C@@H](C)CO)C[C@@H](C)[C@H](CN(C)CC1CCCCC1)OCCCC[C@@H](C)O2 | -6 | -4
COCC(=O)Nc1ccc2c(c1)OC[C@H](C)N(C(=O)c1cccnc1)C[C@@H](C)[C@H](OC)CN(C)C2=O | -6 | -7
CN(C)CC#Cc1ccc([C@@H]2[C@@H](CO)N3CCCCN(C(=O)C4CCC4)C[C@@H]23)cc1 | -4 | -4
O=C(Nc1ccc2c(c1)[C@H]1C[C@@H](CC(=O)N3CCc4ccccc4C3)O[C@H](CO)[C@H]1O2)NC1CCCC1 | -4 | -1
COc1ccc(C)cc1-n1nnnc1SCc1nc(N)nc(N(C)C)n1 | 11 | 11
COCC(=O)Nc1ccc2c(c1)C(=O)N(C)C[C@H](OC)[C@H](C)CN(C(=O)COC)[C@H](C)CO2 | 8 | 3
O=C(C[C@H]1CC[C@H](NS(=O)(=O)c2ccc(F)cc2)[C@@H](CO)O1)NC1CCC1 | 10 | 9
COc1ccc2c3c(n(C)c2c1)[C@H](CO)N(S(C)(=O)=O)CC31CCN(CC2CC2)CC1 | -23 | -13
CNC[C@@H]1Oc2ccc(NC(=O)Nc3ccc(F)cc3)cc2C(=O)N([C@H](C)CO)C[C@@H]1C | 14 | 8
COCC(=O)Nc1ccc2c(c1)C(=O)N(C)C[C@@H](OC)[C@@H](C)CN(Cc1cccnc1)[C@H](C)CO2 | 0 | -2
C[C@@H]1CN([C@H](C)CO)S(=O)(=O)c2ccc(-c3ccncc3)cc2O[C@H]1CN(C)C(=O)c1ccc2c(c1)OCO2 | 11 | 10
CCC(=O)N1[C@H](CO)[C@H](c2ccc(-c3ccccc3)cc2)[C@H]1CNC(=O)COC | -5 | 1
C[C@@H]1CN([C@@H](C)CO)C(=O)c2cc(NS(=O)(=O)c3ccccc3)ccc2O[C@H]1CN(C)Cc1ccc(C(=O)O)cc1 | 11 | 8
CCCC#Cc1cnc2c(c1)C(=O)N([C@@H](C)CO)C[C@H](C)[C@@H](CN(C)C(=O)Cc1ccncc1)O2 | -6 | 1
O=C(NC[C@@H]1CC[C@@H]2[C@@H](CN2S(=O)(=O)c2ccccc2[N+](=O)[O-])O1)Nc1ccccc1 | -6 | -6
COc1ccc(NC(=O)Nc2ccc3c(c2)C(=O)N([C@@H](C)CO)C[C@@H](C)[C@H](CN(C)C(=O)NC2CCCCC2)O3)cc1 | 6 | -4
Cc1noc(C)c1NC(=O)N(C)C[C@@H]1OCCCC[C@H](C)Oc2ccc(NS(=O)(=O)c3cccs3)cc2C(=O)N([C@@H](C)CO)C[C@@H]1C | 35 | 11
O=C(N[C@@H]1CC[C@H](CCNS(=O)(=O)c2ccc(F)cc2)O[C@H]1CO)C1CCOCC1 | -6 | -7
CCCC#Cc1ccc([C@@H]2[C@H](CO)N3C(=O)CN(C(=O)NCCC)C[C@@H]23)cc1 | 8 | 5
CCS(=O)(=O)NCC[C@H]1CC[C@H](NC(=O)C2CC2)[C@H](CO)O1 | 5 | 11
COC(=O)C[C@H]1C[C@H]2c3cc(NC(=O)CC4CC4)ccc3O[C@H]2[C@@H](CO)O1 | -7 | 4
O=C(C[C@H]1CC[C@@H]2[C@H](COC[C@H](O)CN2S(=O)(=O)c2ccccc2)O1)Nc1ccc(-c2ccccc2)cc1 | ? | .
COc1ccc(NC(=O)N(C)C[C@H]2OCCCC[C@H](C)Oc3ccc(NC(=O)Nc4ccccc4)cc3C(=O)N([C@H](C)CO)C[C@@H]2C)cc1 | -6 | -1
COc1ccc(C#Cc2ccc3c(c2)O[C@@H](CN(C)C(=O)c2ccccn2)[C@H](C)CN([C@H](C)CO)S3(=O)=O)cc1 | ? | .
C[C@@H]1CN([C@@H](C)CO)S(=O)(=O)c2ccc(/C=C/c3ccccc3)cc2O[C@@H]1CN(C)C(=O)Nc1cc(F)ccc1F | -26 | -26
CC(C)NC(=O)Nc1ccc2c(c1)C(=O)N([C@H](C)CO)C[C@@H](C)[C@H](CN(C)S(C)(=O)=O)OCCCC[C@@H](C)O2 | 32 | 13
COc1ccc(S(=O)(=O)Nc2ccc3c(c2)C(=O)N([C@H](C)CO)C[C@H](C)[C@@H](CN(C)Cc2ccccc2)O3)cc1 | 6 | -3
COc1ccccc1-c1ccc([C@@H]2[C@H]3CN(C(=O)NC4CCCC4)CCCCN3[C@H]2CO)cc1 | ? | .
C[C@H](CO)N1C[C@H](C)[C@H](CN(C)C(=O)NC2CCCCC2)Oc2ccc(NC(=O)Nc3ccc4c(c3)OCO4)cc2C1=O | 0 | 0
C[C@@H]1CN([C@H](C)CO)C(=O)CCCn2nncc2CO[C@H]1CN(C)C(=O)Nc1ccc(C(C)(C)C)cc1 | 28 | 9
Cn1cnc(S(=O)(=O)N2CC[C@@H]3[C@H]2c2cc(-c4cccc(F)c4)ccc2N[C@@H]3CO)c1 | -27 | -16

A different layout for 10 compounds above:
| compound | Vaccinia inh | Vaccinia inh Venus |
| --- | --- | --- |
| CCC(=O)N1[C@H](CO)[C@H](c2ccc(-c3ccccc3)cc2)[C@H]1CNC(=O)COC | -5 | 1 |
| C[C@@H]1CN([C@@H](C)CO)C(=O)c2cc(NS(=O)(=O)c3ccccc3)ccc2O[C@H]1CN(C)Cc1ccc(C(=O)O)cc1 | 11 | 8 |
| CCCC#Cc1cnc2c(c1)C(=O)N([C@@H](C)CO)C[C@H](C)[C@@H](CN(C)C(=O)Cc1ccncc1)O2 | -6 | 1 |
| O=C(NC[C@@H]1CC[C@@H]2[C@@H](CN2S(=O)(=O)c2ccccc2[N+](=O)[O-])O1)Nc1ccccc1 | -6 | -6 |
| COc1ccc(NC(=O)Nc2ccc3c(c2)C(=O)N([C@@H](C)CO)C[C@@H](C)[C@H](CN(C)C(=O)NC2CCCCC2)O3)cc1 | 6 | -4 |
| Cc1noc(C)c1NC(=O)N(C)C[C@@H]1OCCCC[C@H](C)Oc2ccc(NS(=O)(=O)c3cccs3)cc2C(=O)N([C@@H](C)CO)C[C@@H]1C | 35 | 11 |
| O=C(N[C@@H]1CC[C@H](CCNS(=O)(=O)c2ccc(F)cc2)O[C@H]1CO)C1CCOCC1 | -6 | -7 |
| CCCC#Cc1ccc([C@@H]2[C@H](CO)N3C(=O)CN(C(=O)NCCC)C[C@@H]23)cc1 | 8 | 5 |
| CCS(=O)(=O)NCC[C@H]1CC[C@H](NC(=O)C2CC2)[C@H](CO)O1 | 5 | 11 |
| COC(=O)C[C@H]1C[C@H]2c3cc(NC(=O)CC4CC4)ccc3O[C@H]2[C@@H](CO)O1 | -7 | 4 |

Next part.
SMILES | Vaccinia inh | Vaccinia inh Venus
O=C(NCC[C@H]1CC[C@@H](NS(=O)(=O)c2ccc(F)cc2)[C@@H](CO)O1)c1ccccc1F | -1 | -5
C[C@H]1CN([C@@H](C)CO)C(=O)c2cc(C#Cc3cccnc3)cnc2O[C@@H]1CN(C)C | 22 | 22
CC(C)NC(=O)N(C)C[C@H]1Oc2ccc(NC(=O)Cc3cn(C)c4ccccc34)cc2CC(=O)N([C@H](C)CO)C[C@H]1C | 2 | -3
COc1cccc(S(=O)(=O)Nc2ccc3c(c2)[C@@H]2C[C@@H](CC(=O)NCc4ccc(Cl)cc4)O[C@@H](CO)[C@@H]2O3)c1 | ? | .
O=C(C[C@H]1CC[C@H](NC(=O)C2CC2)[C@@H](CO)O1)Nc1ccccc1 | 4 | -1
O=S(=O)(c1ccccc1)N1CCCCN2[C@H](C1)[C@@H](c1ccc(C#CC3CCCC3)cc1)[C@@H]2CO | -29 | -29
C[C@@H]1CN([C@@H](C)CO)C(=O)c2cc(NC(=O)CCC(F)(F)F)ccc2O[C@H]1CN(C)Cc1ccc(-c2ccccc2)cc1 | -35 | -29
CS(=O)(=O)N1CC(=O)N2[C@@H](CO)[C@H](c3ccc(C#CCC4CCCC4)cc3)[C@@H]2C1 | -19 | -15
CNC[C@@H]1Oc2ccc(NC(=O)C3CCCCC3)cc2CC(=O)N([C@@H](C)CO)C[C@H]1C | 8 | 6
O=C(c1cccc(F)c1)N1CCCCN2[C@@H](CO)[C@@H](c3ccc(-c4ccncc4)cc3)[C@@H]2C1 | 27 | 11
COc1cccc(C#Cc2cnc3c(c2)C(=O)N([C@H](C)CO)C[C@@H](C)[C@@H](CN(C)C(=O)C2CCC2)O3)c1 | -4 | -3
COc1ccc(NC(=O)N(C)C[C@@H]2OCCCC[C@H](C)Oc3ccc(NC(=O)Nc4ccc(F)cc4)cc3C(=O)N([C@@H](C)CO)C[C@@H]2C)cc1 | 3 | 15
C[C@@H]1CN([C@H](C)CO)C(=O)c2cc(C#CCc3ccccc3)cnc2O[C@H]1CN(C)C(=O)C1CC1 | 19 | 15
O=C(c1ccccc1F)N1C[C@@H]2[C@H](c3ccccc31)[C@H](CO)N2C(=O)C1CCCC1 | 4 | 0
COc1ccc(NC(=O)Nc2ccc3c(c2)C(=O)N([C@H](C)CO)C[C@H](C)[C@@H](CN(C)S(=O)(=O)c2cn(C)cn2)O3)cc1 | 21 | 10
NC(=O)C1=C[C@@H](c2ccc(C(F)(F)F)cc2)C[C@@H](OCCCCO)O1 | 8 | 11
C[C@H]1CN([C@@H](C)CO)S(=O)(=O)c2ccc(C#CC3CC3)cc2O[C@@H]1CN(C)C(=O)c1cccc(F)c1 | -29 | -25
C[C@@H]1CN([C@@H](C)CO)C(=O)c2c(c3ccccc3n2C)-c2ccccc2CO[C@H]1CN(C)Cc1cccnc1 | -20 | -22
C[C@@H]1CCCCO[C@@H](CN(C)S(C)(=O)=O)[C@H](C)CN([C@@H](C)CO)C(=O)c2cc(NC(=O)NC3CCCCC3)ccc2O1 | 21 | 12
C[C@H](O)C#Cc1cnc2c(c1)C(=O)N([C@H](C)CO)C[C@@H](C)[C@@H](CN(C)Cc1ccc(-c3ccccc3)cc1)O2 | ? | .
C[C@@H]1CCCCO[C@@H](CN(C)C(=O)NC2CCCCC2)[C@H](C)CN([C@H](C)CO)C(=O)c2cc(NC(=O)C3CCCCC3)ccc2O1 | ? | .
N#C[C@H]1[C@H](c2ccccc2C2=CCCCC2)[C@H](CO)N1S(=O)(=O)c1cccc(F)c1 | -32 | -20
C[C@H](CO)N1C[C@H](C)[C@H](CN(C)CC2CC2)OCCCC[C@H](C)Oc2ccc(NS(=O)(=O)c3cn(C)cn3)cc2C1=O | 21 | 11
COc1cccc(S(=O)(=O)N[C@H]2CC[C@@H](CCN)O[C@H]2CO)c1 | 7 | 2
C[C@@H]1CN([C@@H](C)CO)C(=O)CCCn2nncc2CO[C@H]1CN(C)C(=O)CCCN(C)C | 9 | 2
Cc1noc(C)c1NC(=O)Nc1ccc2c(c1)C(=O)N([C@@H](C)CO)C[C@@H](C)[C@H](CN(C)C(=O)Nc1ccc(C(F)(F)F)cc1)O2 | 15 | 14
CN(C)C(=O)c1cccc(-c2ccc(C3[C@H]4CNC[C@@H]3N4Cc3cc(-c4ccccc4)on3)cc2)c1 (stereo partly specified) | -13&-5 | -8&-9
C[C@H]1CN([C@@H](C)CO)C(=O)c2cc(-c3ccc(C#N)cc3)cnc2O[C@H]1CN(C)C(=O)CC1CC1 | 10 | 12
CC(C)(C)[S@](=O)N1Cc2cc(C(=O)NCc3ccc4c(c3)OCO4)nc(-c3cccc(-c4cccnc4)c3)c2[C@@H]1CCO | -30 | -8
CN(C)CC(=O)N[C@@H]1C=C[C@@H](CC(=O)NCc2ccc(Cl)cc2)O[C@H]1CO | 5 | 4
O=C(N[C@H]1CC[C@H](CCNC(=O)C2CCC2)O[C@@H]1CO)c1ccccn1 | -7 | 4
CCC(=O)N1[C@@H]2c3ccc(C4=CCCC4)c(=O)n3C[C@H]1[C@H](CO)[C@H]2C(=O)OC | 11 | 7
C[C@@H]1CCCCO[C@@H](CN(C)C(=O)Nc2ccc(C(F)(F)F)cc2)[C@H](C)CN([C@H](C)CO)C(=O)c2cc(NS(=O)(=O)c3ccc(Cl)cc3)ccc2O1 | -16 | -4
CN(C)C(=O)[C@@H]1[C@@H](CO)[C@@H]2Cn3c(cccc3=O)[C@H]1N2CC1CC1 | 1 | 4
C[C@H](CO)N1C[C@H](C)[C@H](CN(C)C(=O)c2ccncc2)OCc2ccccc2-c2c(n(C)c3ccccc23)C1=O | 6 | 11
O=C(Nc1ccc(F)cc1)N[C@H]1C=C[C@@H](CC(=O)N2CCCCC2)O[C@H]1CO | -4 | -8
Cc1ccccc1S(=O)(=O)N1C[C@@H](O)COC[C@H]2O[C@H](CC(=O)N3CCN(C)CC3)CC[C@@H]21 | -7 | -5
Cc1noc(C)c1S(=O)(=O)Nc1ccc2c(c1)C(=O)N([C@H](C)CO)C[C@H](C)[C@H](CN(C)Cc1ccccc1)OCCCC[C@@H](C)O2 | -18 | -13
